Screening results deposited in PubChem BioAssay by several laboratories.
UCH37 inh: inhibitors of human UCH37 deubiquitinase, primary screen, biochemical, Ub-AMC cleavage, fluorescence | Ubiquitin carboxyl-terminal hydrolase isozyme L5 (Homo sapiens), Q9Y5K5 | purified proteasome/UCH37 | inhibition, % (no concentration beside the values) | 0.33% of 330,000 active;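 active = mean of two replicates above 20%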;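 also: 0% = compound-free wells with enzyme and 100% = wells lacking proteasome; stock transfer was 100 nL into about 20 µL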
Target sequence (Q9Y5K5 whole entry, looked up): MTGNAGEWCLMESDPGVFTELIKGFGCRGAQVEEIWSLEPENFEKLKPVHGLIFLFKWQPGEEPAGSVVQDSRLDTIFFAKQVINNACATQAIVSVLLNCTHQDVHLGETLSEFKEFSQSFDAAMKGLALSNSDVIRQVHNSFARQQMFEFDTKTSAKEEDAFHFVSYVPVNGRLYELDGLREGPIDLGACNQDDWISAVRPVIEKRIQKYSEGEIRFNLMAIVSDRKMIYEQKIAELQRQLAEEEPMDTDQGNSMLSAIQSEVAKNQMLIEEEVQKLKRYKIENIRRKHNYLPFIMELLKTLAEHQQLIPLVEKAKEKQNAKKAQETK
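Signal – fluorescence, ex 355 nm, em 460 nm · System – Proteasome-bound UCH37 · Input – 0.15 nM proteasome as dispensed · Timing – 30 min preincubation with enzyme, 25 min cleavage at room temperature · Read-out basis – percent inhibition of cleavage signal versus uninhibited and no-proteasome wells · Medium – Tris-HCl pH 7.4 with ATP-MgCl2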
Ecoli growth: E. coli growth inhibition, primary screen, OD600. Escherichia coli growth, 23 h; stronger effect = lower value. OD600 absorbance (test concentration not listed). 0.21% of 330,000 active;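 active = OD600 absorbance below the run mean of sample wells minus 3.6 SD, in any replicate, cut at about 0.56 in these data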;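 also: stock transfer was 300 nL into about 60 µL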
Bfl-1 A1 inh: caspase 3/7 activation in MEF A1-2A-BIM cells, primary screen, A1 inhibitor project, cell-based, luminescence, HTS | caspase activation, % (no concentration beside the values) | 0.066% of 330,000 active | Caspase-Glo 3/7 luminescence, 3 h; percent of clofoctol response, vehicle zero;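 active = over half of replicate activation scores above 10%, or exactly half above 10 with the replicate mean above 10; inconclusive = replicate mean below 10 yet half the replicates above 10; inactive = over half of replicates below 10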;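 also: wells of about 30 µL received 50 nL stock; many hits fall short of the cut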
AF4-AF9 inh: inhibitors of AF4 peptide binding to AF9, primary screen, biochemical, AlphaScreen, biotin-AF4 peptide, FLAG-AF9, single point. 0.47% of 350,000 active. inhibition, % at 10 µM. AID 651704, 2012. Protein AF-9 (Homo sapiens), P42568;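 active = every replicate reaching a set inhibition limit, whatever the replicate mean, cut at about 25% in these data; inconclusive = mean inhibition reaches that limit but some replicates miss it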;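 also: 0% = plate neutral control median and 100% = total signal loss; the record names both 10 and 1 µM as test concentration; the first replicate is given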
Target sequence (P42568 whole entry, looked up): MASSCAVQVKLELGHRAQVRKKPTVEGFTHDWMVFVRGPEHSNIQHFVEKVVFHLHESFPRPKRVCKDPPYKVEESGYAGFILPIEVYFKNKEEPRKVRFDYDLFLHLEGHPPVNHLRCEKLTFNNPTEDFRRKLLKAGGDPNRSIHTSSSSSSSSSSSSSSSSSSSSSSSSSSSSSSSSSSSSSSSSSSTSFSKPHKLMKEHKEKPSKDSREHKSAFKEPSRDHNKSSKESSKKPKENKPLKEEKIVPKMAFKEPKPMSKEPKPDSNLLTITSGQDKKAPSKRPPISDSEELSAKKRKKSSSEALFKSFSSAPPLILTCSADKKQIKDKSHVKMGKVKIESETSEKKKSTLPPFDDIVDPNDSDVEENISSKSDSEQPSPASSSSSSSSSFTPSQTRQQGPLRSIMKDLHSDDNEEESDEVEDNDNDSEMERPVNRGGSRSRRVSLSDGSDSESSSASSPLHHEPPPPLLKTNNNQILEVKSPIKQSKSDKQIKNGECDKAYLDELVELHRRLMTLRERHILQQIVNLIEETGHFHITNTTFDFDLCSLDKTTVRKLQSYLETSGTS
T cruzi inh: inhibitors of intracellular T. cruzi growth, primary screen, luminescence, NIH3T3 host cells | T. cruzi beta-gal in NIH3T3, 90 h | inhibition, % (test concentration not listed) | AID 1885, 2009 | 1.4% of 300,000 active;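 active = mean inhibition across valid replicates above about 55%, limit read from the data; inconclusive = mean below that limit but half or more replicates reach it; inactive = mean below it, under half of replicates reach it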;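 also: signal also drops with host cell toxicity which is not excluded here; 0% = plate median of DMSO wells and 100% = zero luminescence signal; higher percent means less beta-gal luminescence so fewer parasites; stock transfer was 50 nL into about 50 µL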
FGF22 binding: binders of human FGF22 protein, primary screen, FGF22 synaptogenesis inhibitor project, biophysical, thermal shift, single point. recombinant FGF22 thermal shift, SYPRO orange fluorescence; percent of sucrose octasulfate shift, DMSO zero. calls only at 9.99 µM. AID 651658, 2012. Fibroblast growth factor 22 (Homo sapiens), Q9HCT0. 1.5% of 340,000 active;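 active = melting point raised past a set limit in the mean and every replicate; inconclusive = no clear call; three in four hits are not shown here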
Target sequence (Q9HCT0 whole entry, looked up): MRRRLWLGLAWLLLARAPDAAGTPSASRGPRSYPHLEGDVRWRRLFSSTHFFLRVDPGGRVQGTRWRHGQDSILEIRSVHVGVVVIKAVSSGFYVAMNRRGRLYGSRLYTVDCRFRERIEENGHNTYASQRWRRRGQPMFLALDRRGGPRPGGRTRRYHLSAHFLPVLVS
rRNA inh HTS: reduced GFP signal of wild-type E. coli, primary screen, bacterial rRNA inhibitor project, GFP/RFP fluorescence, OD600, single point; E. coli WT GFP vs humanized-ribosome RFP mutants, 24 h; stronger effect = lower value; DMSO median 0, no signal -100; GFP signal change (wild-type ribosome), % (no concentration beside the values); 1.6% of 350,000 active; AID 720706, 2013;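 active = significant combined selectivity score with lowered wild-type GFP, culture density cut under 30%, mutant RFP and density less affected; inactive = any of these conditions unmet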; also: one replicate is shown; some compounds called inactive have numbers as strong as hits
Beta cell apopt: inhibitors of cytokine-induced beta cell apoptosis, primary screen, luminescence. INS-1E cytokine-induced death, ATP luminescence, 48 h; percent of positive-control rescue, neutral wells zero. protection from apoptosis, % (test concentration not listed). 0.8% of 300,000 active. AID 435005, 2010;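 active = all replicates at 75% or more, or half of them and the mean; inconclusive = half reach 75% but not the mean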;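 also: 0% = cytokine-treated negative control wells and 100% = positive control rescue; higher means more ATP so stronger rescue from cytokine killing; wells of about 40 µL received 100 nL stock; the first replicate is given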
rRNA inh HTS OD600: recorded beside rRNA inh HTS, whose call it bears; OD600 change, %; measured here: OD600 growth;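 optical density of the mix in the first replicate; 0 = DMSO median and -100 = no signal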
rRNA inh HTS RFP: recorded beside rRNA inh HTS, whose call it bears; RFP signal change, %; measured here: RFP humanized mutant strains;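 first replicate; 0 = DMSO median and -100 = no signal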
The depositor's hits bear a star; i = inactive; ? = inconclusive; · = no result given; & = joins results of further samples. Some of the compounds tested; count on the stated rates, not on these rows.

entry	Molecule	UCH37 inh	Ecoli growth	Bfl-1 A1 inh	AF4-AF9 inh	T cruzi inh	FGF22 binding	rRNA inh HTS	rRNA inh HTS OD600	rRNA inh HTS RFP	Beta cell apopt
1	CC(C)N=C(NC#N)SCc1ccccc1F	4.0	0.68	-0.1	5.6	5	i	4	3	1.6	-9
2	OC1CCC(Nc2ncnc3sccc23)CC1 (centres undefined)	3.3	0.7	-0.5	-2.2	-7	i	6	17	0.8	-12
3	O=C(O)CC/C(=N/NC(=O)CNC(=O)c1ccc2c(c1)OCCO2)c1ccccc1	·	·	?	-9.5	8	i	5	16	-1.1	-5
4	CNc1oc(C)nc1S(=O)(=O)c1ccccc1	-6.0	0.68	-1.0	·	-9	·	·	·	·	-2
5	COc1cc(OC)cc(C(=O)NC(C(=O)NCCc2ccccn2)C(C)C)c1 (centres undefined)	1.4	0.7	0.7	-1.8	·	i	7	1	0.8	4
6	O=C(CSc1nc2ccccc2s1)NNC(=S)Nc1ccc(Cl)cc1	0.2	0.66	?	3.7	-32	i	-54	-72	-13	8
7	O=C(COc1coc(CN2CCN(Cc3ccccc3)CC2)cc1=O)Nc1ccccc1	1.8	0.68	0.9	-0.8	46	i	4	11	0.0	·
8	CCOC(=O)c1ccc(NC(=O)Cn2c(=O)oc3ccccc32)cc1	3.6	0.62	-1.0	-12	-24	i	6	9	2.8	-4
9	Cc1cccc(C)c1NC(=O)COC(=O)C1CC1	-1.7	0.67	0.3	-0.4	·	i	14	13	-0.6	-2
10	O=C(NNC1=NS(=O)(=O)c2ccccc21)c1ccccc1	9.2	0.69	-1.8	-4.2	-25	i	7	7	-8.3	2
11	COc1cc(-c2nnc3sc(Cc4ccccc4)nn23)cc(OC)c1OC	1.2	0.68	-0.5	·	27	·	·	·	·	20
12	Cc1ccc(S(=O)(=O)N2C(c3ccc(Cl)c(Cl)c3)CC=C(C(=O)O)C2c2ccc(Cl)cc2)cc1 (centres undefined)	·	0.63	·	-1.6	·	i	-46	-68	-22	·
13	COc1ccc(C(C#N)N2CCC(c3ccccc3)=N2)cc1 (centres undefined)	5.3	0.68	-0.2	2.9	4	i	11	6	4.0	11
14	C/C=C/c1ccc(OCCNCc2ccccc2)c(OC)c1	2.7	0.57	-0.1	7.6	2	i	3	1	-0.5	·
15	CC1CCCCC1NS(=O)(=O)c1ccc2c(c1)CCC(=O)N2 (centres undefined)	2.3	0.68	2.6	-5.7	·	i	-3	-10	-2.2	-2
16	Cc1ccc(-c2nn(-c3ccccc3)cc2CN(Cc2ccccc2)C(=O)c2ccco2)o1	4.5	0.75	0.8	·	28	·	·	·	·	6
17	Cc1[nH]c2ccc(C(=O)NCc3ccccn3)cc2c1C	·	·	-1.0	2.6	-14	i	3	6	2.7	-6
18	CCc1cccc(CC)c1NC(=O)COC(=O)C1(C)CC1(Cl)Cl (centres undefined)	-0.9	0.67	-0.3	-5.6	2	i	7	8	-1.7	-3
19	CCOC(=O)C(CC(=O)c1ccccc1)CC(=O)c1ccccc1	-0.8	0.67	0.4	-4.7	-6	i	1	1	-0.7	-2
20	NC(=O)c1ccsc1NC(=O)CS(=O)(=O)c1ccccc1	3.3	0.7	0.7	-27	-22	i	13	20	0.2	-7

Sorted by SMILES length (ascending): some entries from above.
entry	Molecule	UCH37 inh	Ecoli growth	Bfl-1 A1 inh	AF4-AF9 inh	T cruzi inh	FGF22 binding	rRNA inh HTS	rRNA inh HTS OD600	rRNA inh HTS RFP	Beta cell apopt
14	C/C=C/c1ccc(OCCNCc2ccccc2)c(OC)c1	2.7	0.57	-0.1	7.6	2	i	3	1	-0.5	·
17	Cc1[nH]c2ccc(C(=O)NCc3ccccn3)cc2c1C	·	·	-1.0	2.6	-14	i	3	6	2.7	-6
13	COc1ccc(C(C#N)N2CCC(c3ccccc3)=N2)cc1 (centres undefined)	5.3	0.68	-0.2	2.9	4	i	11	6	4.0	11

Next section
entry	Molecule	UCH37 inh	Ecoli growth	Bfl-1 A1 inh	AF4-AF9 inh	T cruzi inh	FGF22 binding	rRNA inh HTS	rRNA inh HTS OD600	rRNA inh HTS RFP	Beta cell apopt
21	CC1=Nc2ccccc2N=C(NC(=O)CN2CCN(c3ccc(F)cc3)CC2)C1c1ccccc1 (centres undefined)	·	·	1.2	4.1	25	i	-8	8	12	·
22	Nc1nnc(SCc2ccc(F)cc2Cl)s1	4.2	0.71	-0.4	9.0	-9	i	-26	-39	-5.5	-13
23	Cc1nc(C(=O)NC2CCOCC2)sc1C1(C)CC(c2ccccc2)=NO1 (centres undefined)	3.5	0.69	-0.5	-4.1	-14	i	7	4	-2.0	-13
24	O=C(C1=C[C@@H](c2ccc3c(c2)OCO3)C[C@@H](OCCCCO)O1)N1CCOCC1	-3.1	·	0.6	-1.0&2.2	-24	i	10	12	0.9	1
25	O=C(O)C(Cc1ccccc1)N1C(=O)/C(=C/c2cccs2)SC1=S (centres undefined)	5.9	0.64	·	-1.1	·	i	-59	-79	-20	·
26	CCO[C@@H]1OC(C(=O)Nc2ccccc2)=C[C@H](C2CC2)[C@H]1CCCO	2.3	·	0.8	0.2&0.5	-12	i	-10	-1	-3.3	0
27	CC(=O)C1=C(C)Nc2ncnn2C1c1cccc(O)c1 (centres undefined)	4.8	0.67	0.9	-1.7	-2	i	11	-1	-1.5	-4
28	CCc1ccc(C(=O)Cn2ccsc2=N)cc1	-0.4	0.66	-6.1	7.4	3	i	-8	-24	4.6	16
29	CCCC(c1nnnn1CCOC)N1CCN(C(=O)c2ccco2)CC1 (centres undefined)	3.9	0.79	-0.4	·	-18	·	·	·	·	-2
30	CCC(C)NC(=O)c1cc2c(=O)n(CC)c3ccccc3c2s1 (centres undefined)	-177	0.65	-0.2	-3.3	21	i	-5	-7	-1.6	16
31	CC(C)=CCCC(C)CN1CCC(N2CCC(C(=O)N3CCOCC3)CC2)CC1 (centres undefined)	-1.2	0.7	-0.4	1.4	9	i	6	7	-4.9	-11
32	O=C(Nc1cccnc1)c1ccc(C(=O)Nc2cccnc2)cc1	1.3	0.7	1.0	-1.8	-7	i	4	11	-0.1	-1
33	CCCCC1(Cc2ccc([N+](=O)[O-])cc2)C(=O)N(c2ccccc2)N(c2ccccc2)C1=O	-0.9	0.78	-0.1	·	18	·	·	·	·	101*
34	CN(C)C(=O)CSc1n[nH]c(-c2ccco2)n1	2.1	0.7	-0.9	0.8	-31	i	10	8	6.2	-7
35	CCN(C(=O)COC(=O)c1c(C)noc1C)C1CCS(=O)(=O)C1 (centres undefined)	2.2	0.71	0.5	-0.6	-11	i	5	12	1.1	-10
36	O=C1O/C(=C\C(=O)N2CCOCC2)c2ccccc21	4.2	0.71	0.3	·	-17	·	·	·	·	-6
37	C#CCCC/C(=C\C(=O)N(C)[C@H](C(=O)N(C)[C@H](C(=O)N(C)[C@H](C(=O)N(C)[C@H](C(N)=O)C(C)C)C(C)C)C(C)C)C(C)C)OC	-1.2	0.72	·	1.2	·	i	-6	-4	-4.3	·
38	COc1ccccc1N1CCN(C(=O)/C=C/c2cccs2)CC1	6.6	0.72	0.4	·	-8	·	·	·	·	3
39	Cc1cc(NC(=O)Cc2ccccc2[N+](=O)[O-])no1	6.0	0.71	0.6	0.6	-27	i	6	5	-0.6	-6
40	CCOC(=O)Cn1c(C)[n+](C)c2cc(Cl)c(Cl)cc21	1.1	0.67	0.5	-0.2	14	i	18	11	3.8	-4
41	COc1cc(Cn2nnc3ccccc32)cc(Br)c1O	3.8	0.66	0.0	1.4	-2	i	-11	-42	1.2	-1
42	Cc1c(NC(=O)C2CC=CCC2C(=O)O)c(=O)n(-c2ccccc2)n1C (centres undefined)	-1.4	0.73	-1.2	·	-17	·	·	·	·	-4
43	Cc1ccc(-c2nnn(CC(=O)N(c3ccccc3)C(C(=O)NCC3CCCO3)c3ccc(F)cc3)n2)o1 (centres undefined)	-2.0	0.7	0.7	-0.1	5	i	23	18	0.3	-3
44	Cc1ccc(-n2c(SCc3cn4ccsc4n3)nc3ccccc3c2=O)cc1	-1.7	0.82	-0.6	·	37	·	·	·	·	-6
45	COc1ccc(Cc2nnc(NC(=O)c3ccccc3C)s2)cc1	0.7	0.65	-0.7	0.5	1	i	2	4	-0.6	-18
46	CC(C)Oc1cc(O)c2c(=O)c(-c3ccc(O)cc3)coc2c1	4.7	0.71	-8.0	6.0	24	i	-8	-14	-1.1	·
47	Cc1ccccc1-c1cc2nc(-c3ccc([N+](=O)[O-])cc3)cc(=O)n2[nH]1	4.3	0.68	1.1	-1.8	-12	i	-1	7	-2.1	-6
48	COCCNC(=O)NC(=O)COC(=O)C12CC3CC(CC(NC(C)=O)(C3)C1)C2	-1.6	0.72	-0.3	·	-1	·	·	·	·	5
49	Cc1ccc(CNC(=O)C(=O)NCC2CCCN2S(=O)(=O)c2cccs2)cc1 (centres undefined)	·	·	0.8	-0.8	15	·	-4	-3	2.6	-11
50	O=S(=O)(N1CCCCC1)N1CCNCC1	0.0	0.64	0.2	-0.2	-4	i	15	-4	2.2	-4
51	Cc1cc(C)nc(N/N=C/c2cccc(Cl)c2)n1	·	·	-0.8	3.5	-1	i	1	2	0.5	-1
52	O=C(Nc1cccc(F)c1)C1CCN(C(=O)Cc2ccccc2)CC1	5.2	0.69	-0.6	·	-12	·	·	·	·	-1
53	CCOc1ccccc1C1C2=C(COC2=O)Nc2cc3c(cc21)OCO3 (centres undefined)	-39	0.71	0.7	8.4	34	·	-24*	-8.0*	-5.9*	35
54	Cc1ccc(NC(=O)Cc2ccsc2)cc1S(=O)(=O)N1CCOCC1	0.1	0.62	-0.3	4.5	·	i	-16	-20	0.7	3
55	COc1ccc(-c2nnc(SCC(=O)c3ccc(C)o3)o2)cc1	0.9	0.64	·	-26	7	i	3	6	0.2	·
56	Cc1ccc(CC(=S)N2CCOCC2)cc1	-1.2	0.68	-0.9	-2.9	-5	i	15	14	3.4	5
57	CCOc1cc(OCC)cc(C(=O)NCCCN2CCOCC2)c1	-1.0	0.68	0.7	3.9	3	i	13	2	4.7	-7
58	Cc1ccc(SC2CCN(C(=O)C3CCC(=O)N(C4CC4)C3)CC2)cc1 (centres undefined)	1.7	0.68	-0.1	-3.8	-7	i	-3	3	1.7	-1
59	Cc1ccc(C(CC(=O)N2CCOCC2)c2ccco2)cc1 (centres undefined)	3.9	0.7	-0.6	·	-9	·	·	·	·	3
60	COc1cc(C2NC(=O)NC(C)=C2C(=O)OCC2CCCO2)ccc1O (centres undefined)	5.1	0.7	0.9	-0.8	-2	i	9	5	-1.8	2
